Screens as filed in PubChem.
p53null 39C tox = qHTS Screen for Compounds that Selectively Target Cancer Cells with p53 Mutations: Cytotoxicity of p53 Null Cells at the Nonpermissive Temperature; H1299 p53-null (neo) cells, 39C, ATPlite viability, 24 h; Potency, µM (doses to about 46.1 µM), inactives show at the top dose activity, negative = cell killing, most hits filed as cytotoxic; AID 904, 2007; 0.97% of 55,000 active;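 also: potency is read from the fitted curve at half-maximal effect; 0% = DMSO only and -100% = full killing by 100 µM tamoxifen; nearly all actives have a fitted effect of over 50% in size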
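ATP-luminescence viability readout (ATPlite, 20 min RT) after 24 hr compound treatment at 39C of H1299-neo or H1299-p53A138V cells; titration up to 46 uM; normalized to DMSO and 100 uM tamoxifen; Hill-fit AC50.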
p53null 32C tox = qHTS Screen for Compounds that Selectively Target Cancer Cells with p53 Mutations: Cytotoxicity of p53 Null Cells at the Permissive Temperature. H1299-neo p53 null cells, ATP luminescence, 24 h, 32C. Potency, µM (titrated, usually from 46.1 µM), inactives show at the highest dose activity change, negative = cytotoxicity, most hits filed as cytotoxic. 0.62% of 55,000 active. AID 903, 2007;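 also: potency is read from the fitted curve at half-maximal effect; 0% = DMSO only and -100% = full killing by 100 µM tamoxifen; nearly all actives have a fitted effect of over 55% in size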
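ATP-content luminescence in p53-null H1299-neo cells after 24 h compound exposure (up to 46 uM) at 32C permissive temperature; 0% and 100% killing set by DMSO and 100 uM tamoxifen; Hill-equation AC50.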
FH mod = Identification of activators of human fumarate hydratase by quantitative high-throughput screening | FH coupled MDH/diaphorase resazurin fluorescence, 15 min | 0.22% of 54,000 active | Potency, µM (series often up to 79.9 µM), inactives show at the top dose activity change, negative = inhibition, hits mostly inhibitors | Fumarate hydratase, mitochondrial (Homo sapiens), P07954; also: potency is read from the fitted curve at half-maximal effect; % is scaled to controls: 0 for no effect and ±100 for the full control effect; the screen sought activators but most active calls are inhibition curves; nearly all actives have a fitted effect of over 45% in size
GALK inh = qHTS Assay for Inhibitors of Human Galactokinase (GALK): NCGC Sytravon Library Screen; P51570; 44,000 tested, under 10 active; Potency, µM (highest dose often 57.5 µM), for the others: at the top dose activity, negative = inhibition, hits mostly inhibitors; AID 1347072, 2019; recombinant GALK, Kinase-Glo ATP luminescence, 1 h;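 also: plate controls were full GALK reaction for no effect and reaction lacking GALK for full effect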
Target sequence (P51570 whole entry, looked up): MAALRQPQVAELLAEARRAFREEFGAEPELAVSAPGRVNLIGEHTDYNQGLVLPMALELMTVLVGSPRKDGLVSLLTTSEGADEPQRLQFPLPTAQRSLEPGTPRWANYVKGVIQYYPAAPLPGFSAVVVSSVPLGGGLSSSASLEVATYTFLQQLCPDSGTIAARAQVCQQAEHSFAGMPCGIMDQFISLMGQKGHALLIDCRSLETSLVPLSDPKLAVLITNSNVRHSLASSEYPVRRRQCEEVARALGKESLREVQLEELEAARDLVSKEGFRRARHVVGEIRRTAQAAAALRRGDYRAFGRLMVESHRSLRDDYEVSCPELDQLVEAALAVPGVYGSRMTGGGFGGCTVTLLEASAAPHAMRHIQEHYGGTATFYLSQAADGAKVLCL
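Luminescent ATP-depletion readout (Kinase-Glo Plus) after 1 h room-temperature incubation of human GALK (5 nM) with galactose 100 µM and ATP 35 µM, pH 8.0 HEPES/Mg2+ buffer; compounds tested in qHTS format.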
PTAP-TSG101 blk = qHTS Validation Assay for Inhibitors of HIV-1 Budding by Blocking the Interaction of PTAP/TSG101: Sytravon Library Screen; AID 1347069, 2019; Potency, µM (titrated, usually from 115 µM), without a hit: at the highest dose activity change, negative = inhibition, actives largely listed as inhibitors; 44,000 tested, under 10 active; Fluorescence polarization, FITC-PTAP peptide/Tsg101, 20 min; Tumor susceptibility gene 101 protein (Homo sapiens), Q99816; also: potency is read from the fitted curve at half-maximal effect; 0% is about no effect
Target sequence (Q99816 whole entry, looked up): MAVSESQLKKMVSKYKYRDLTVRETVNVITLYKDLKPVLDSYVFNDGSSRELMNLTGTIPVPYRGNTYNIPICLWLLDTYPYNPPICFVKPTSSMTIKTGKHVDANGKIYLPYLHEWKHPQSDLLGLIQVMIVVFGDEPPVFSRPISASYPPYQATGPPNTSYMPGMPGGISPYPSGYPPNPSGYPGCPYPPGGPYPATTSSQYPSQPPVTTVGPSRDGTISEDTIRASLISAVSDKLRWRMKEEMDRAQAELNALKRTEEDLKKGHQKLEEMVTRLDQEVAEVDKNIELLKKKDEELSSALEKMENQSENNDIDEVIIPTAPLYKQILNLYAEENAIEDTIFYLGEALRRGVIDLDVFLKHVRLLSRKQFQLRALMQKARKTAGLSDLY
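qHTS FP binding, 20 min r.t.: 10 uM Tsg101 domain + 50 nM FITC-PTAP peptide, pH 7.5 HEPES buffer with TCEP and EDTA.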
B2AR arrestin ag = qHTS assay of beta-arrestin-biased ligands of beta2-adrenergic receptor: NCGC Sytravon Library Screen | AID 1347077, 2019 | 44,000 tested, under 10 active | Potency, µM (top dose mostly 46.1 µM), inactives show top-dose activation, usual class: activators | HTLA Tango cells, beta-arrestin recruitment, luciferase luminescence, 18 h;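 also: potency is read from the fitted curve at half-maximal effect; 0% = DMSO and full agonism = EC100 isoproterenol or metaproterenol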
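Ligand-induced beta-arrestin recruitment to recombinant beta2-AR is measured via a tTA-driven luciferase reporter in Tango cells after 18 hr compound exposure at 37 degrees C. Concentrations span up to 46 microM.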
Active calls of the source: *; ? = inconclusive; / = not tested or not shown; [ ] = another dose, or the depositor's remark. Calls follow the shape of the dose curve; as a rule, active = well fitted curve in the direction sought with a large enough effect; inconclusive = small, poorly fitted or top-dose-only effect, or another doubt; inactive = no such curve, though single readings can be large; an effect the other way counts as inactive or inconclusive. A portion of the library (hit frequency here may not be typical).

nr	structure	p53null 39C tox	p53null 32C tox	FH mod	GALK inh	PTAP-TSG101 blk	B2AR arrestin ag
1	Cc1cccn2c(=O)c(C(=O)NCCc3ccc(Cl)cc3)cnc12	9%	-7%	-11%	0%	-8%	-1%
2	Cc1nn2c(-c3ccco3)ccnc2c1-c1ccc(Cl)cc1	/	/	-5%	-2%	-5%	6%
3	CCC(Cn1nnc2ccccc2c1=O)NC(=O)Nc1cc(OC)cc(OC)c1 (stereo not drawn)	5%	-2%	-5%	-3%	-2%	-2%
4	Cc1ccc(N2CC3=C(C2=O)C(c2ccc(Br)cc2)NC(=O)N3C)cc1 (stereo not drawn)	-17%	20%	-2%	-2%	-7%	1%
5	COc1cccc(OCC(=O)Nc2nnc3n2CCS3)c1	-3%	-1%	?	1%	-4%	0%
6	CC(C)C(NS(=O)(=O)c1cccc2cccnc12)C(=O)Nc1ccc(OC(F)(F)F)cc1 (stereo not drawn)	6%	4%	-26%	0%	-4%	0%
7	COc1ccc(CCNc2nc3ccc(Cl)cc3n3cnnc23)cc1OC	-12%	0%	-2%	-1%	3%	-3%
8	Cc1ccc2c(=O)cc(C(=O)Nc3nc4ccc(Cl)cc4s3)oc2c1C	-11%	-8%	-6%	-12%	1%	0%
9	O=C(CCN1C(=O)c2ccccc2Sc2ncccc21)Nc1ccc(F)cc1	-8%	0%	5%	-1%	-2%	4%
10	O=C(Nc1c(C(=O)N2CCC(N3CCCCC3)CC2)oc2ccccc12)c1c(F)cccc1F	-5%	7%	-2%	-5%	-11%	0%
11	CCOc1ccc(N2C(=O)CS(=O)(=O)C23C(=O)N(Cc2cccc(Cl)c2)c2ccccc23)cc1 (stereo not drawn)	8%	7%	-15%	0%	3%	0%
12	CCc1cccc(N2C(=O)N(CC(=O)NCc3cccc(OC)c3OC)c3ccccc3S2(=O)=O)c1	-3%	-8%	-16%	2%	0%	0%
13	COc1ccc(S(=O)(=O)NCCc2sc(-c3ccccc3)nc2C)cc1OC	16%	3%	-18%	1%	-2%	0%
14	COc1ccc2c(c1)c(=O)c(C(=O)c1ccc(F)cc1)cn2CC(=O)Nc1ccc2c(c1)OCCO2	?	-29%	-5%	-1%	-2%	1%
15	CCCCOCCOc1nc(-c2ccc(C(=O)O)c(F)c2)sc1C	/	/	-6%[53.3 µM]	/	/	/
16	COc1ccc(NC(=O)c2cc3c(=O)n(Cc4cccnc4)ccc3nc2C)cc1Cl	-16%	-6%	-17%	?	0%	1%
17	Cc1ccccc1Cn1c(C)c(CNCCCc2ccccc2)c(C(=O)O)c1C	-13%	6%	0%	-1%	-3%	-3%
18	CCOc1ccc(-c2cn3c(n2)sc2cc(C(=O)NCCCN4CCCCCC4)ccc23)cc1	-5%	10%	?	0%	0%	0%
19	COc1ccc(NC(=O)CCSc2nc(-c3ccco3)cc(C(F)(F)F)n2)cc1OC	-10%	4%	4%	0%	-6%	0%
20	CCc1nc(Oc2cccc(F)c2)c2oc3ccccc3c2n1	25%	-4%	-10%	0%	-6%	-3%
21	CCCN(CCC)CCCNC(=O)Cn1ncn2c(cc3sc(CC)cc32)c1=O	-21%	-4%	-7%	8%	-2%	0%
22	Cc1ccc(-c2cn3c(n2)sc2cc(C(=O)NCCCN4CCCCC4)ccc23)cc1	-12%	-3%	1%	1%	2%	0%
23	CC(C)Cn1cc(NC(=O)NCc2cccc(Cl)c2)c2ccccc2c1=O	3%	4%	?	0%	-4%	1%
24	COc1ccccc1Nc1ncnc2scc(-c3ccc(F)cc3)c12	-5%	-7%	-22%	-2%	-7%	0%
25	CCOC(=O)C1=C(N)Oc2ccc(Cl)cc2C1C(C#N)C(=O)OCC (stereo not drawn)	/	/	7%	/	/	/
26	Cc1nc(N2CCCC2)ncc1C(=O)NCc1ccc(Cl)cc1	9%	8%	1%	-1%	-7%	0%
27	Cc1ccc(NC(=O)c2cc3c(=O)n(Cc4cccnc4)ccc3nc2C)cc1F	-3%	0%	4%	-1%	1%	-1%
28	O=C(CCN1C(=O)c2ccccc2Sc2ncccc21)Nc1ccc(F)cc1F	5%	-2%	5%	4%	-10%	3%
29	Cc1ccc(C)c(NC(=O)c2ccc3c(c2)CCN3S(C)(=O)=O)c1	3%	-3%	0%	1%	0%	-2%
30	NC(=O)CSc1oc(-c2ccco2)nc1S(=O)(=O)c1ccc(Br)cc1	-9%	-2%	-28%	0%	-5%	1%

Molecules above with two or more sulfur atoms (two):
nr	structure	p53null 39C tox	p53null 32C tox	FH mod	GALK inh	PTAP-TSG101 blk	B2AR arrestin ag
13	COc1ccc(S(=O)(=O)NCCc2sc(-c3ccccc3)nc2C)cc1OC	16%	3%	-18%	1%	-2%	0%
30	NC(=O)CSc1oc(-c2ccco2)nc1S(=O)(=O)c1ccc(Br)cc1	-9%	-2%	-28%	0%	-5%	1%

Later entries.
nr	structure	p53null 39C tox	p53null 32C tox	FH mod	GALK inh	PTAP-TSG101 blk	B2AR arrestin ag
31	Cc1ccc(CNC(=O)c2ccccc2NC(=O)c2nsc3ccccc23)cc1	-29%	-18%	-8%	3%	0%	1%
32	COc1cccc(C2c3c(-c4ccccc4O)n[nH]c3C(=O)N2CCc2ccc(OC)c(OC)c2)c1 (stereo not drawn)	46%[activator]	33%[activator]	?	0%	-3%	1%
33	CCOc1ccc(S(=O)(=O)Nc2ccc3c(c2)CCCN3C(=O)c2cccs2)cc1	1%	1%	-30%	-4%	-6%	1%
34	CCOc1ccc(NC(=O)CCn2c(-c3ccc(F)cc3)cc(C(C)=O)c2C)cc1	-2%	13%	-8%	2%	-8%	-1%
35	Cc1cccc(NC(=O)c2cc3c(=O)n(Cc4cccnc4)ccc3nc2C)c1	0%	5%	7%	0%	-6%	3%
36	COc1cc(Cl)c(C)cc1NC(=O)NC1COc2ccccc2C1 (stereo not drawn)	-9%	-3%	-4%	0%	0%	-1%
37	COc1ccc(-c2cc(C(C)=O)c(C)n2CCC(=O)Nc2ccc(C(F)(F)F)cc2)cc1	8%	?	3%	2%	1%	-2%
38	O=C(Nc1ccc2oc(-c3cccc4c(Br)cccc34)nc2c1)c1ccc(F)cc1	22%	6%	?	0%	3%	1%
39	Cc1ccc(CNC(=O)C(NS(=O)(=O)c2cccs2)C(C)C)cc1 (stereo not drawn)	-7%	6%	11%	5%	-1%	1%
40	CCc1ccccc1N(C)C(=O)Nc1cn(CC(C)C)c(=O)c2ccccc12	-30%	9%	12%	2%	3%	0%
41	N#Cc1c(C(F)(F)F)cc(-c2cccs2)nc1SCC(=O)Nc1ccc(Cl)cc1	-19%	2%	-5%	-1%	45%[activator]	-2%
42	COc1ccccc1-c1cc2nc(C)c(CCC(=O)O)c(C)n2n1	?	-18%	-3%	9%	-1%	0%
43	Cc1cc(C)n(-c2nc(C)c(C)c(=O)n2CC(=O)Nc2ccc(OC(F)(F)F)cc2)n1	3%	-1%	?	-7%	1%	-1%
44	O=C1c2[nH]nc(-c3ccccc3O)c2C(c2cccc(OCc3ccccc3)c2)N1CCO (stereo not drawn)	1%	3%	1%	-4%	3%	0%
45	CC/C(=C(/CC)c1ccc(O)cc1)c1ccc(O)cc1	/	/	-16%[53.3 µM]	/	/	/
46	CSc1ccc(/C=C/c2nc3ccccc3n2S(=O)(=O)c2ccc(Br)cc2)cc1	2.5µM*	3.2µM*	-24%	11%	-12%	0%
47	Cc1nn2c(C)c(C(=O)NCC(C)c3ccccc3)cnc2c1-c1ccccc1 (stereo not drawn)	-11%	-22%	-8%	0%	-5%	1%
48	Cc1c(NC(=O)C(C)(C)Oc2ccc(Cl)cc2)cccc1-c1nc2ncccc2o1	-6%	17%	?	0%	-8%	0%
49	CCOc1ccccc1CNCc1c(C(=O)O)c(C)n(Cc2ccc(C)cc2)c1C	3%	-3%	-7%	0%	2%	-3%
50	O=C(NC1(C(F)(F)F)C(=O)Nc2c1c(=O)[nH]c(=O)n2-c1ccccc1)c1ccccc1 (stereo not drawn)	-12%	-4%	5%	3%	-5%	0%
51	CS(=O)(=O)N(Cc1ccco1)CC(O)Cn1c2ccccc2c2ccccc21 (stereo not drawn)	/	/	0%	/	/	/
52	CCOc1ccc(/C=C/c2nc(C#N)c(N3CCCCC3)o2)cc1	-12%	13%	?	-5%	1%	-2%
53	CN(CCCNC(=O)c1cc2c(=O)n(C)c3ccccc3c2s1)Cc1ccccc1	-26%	-1%	-6%	9%	-8%	-1%
54	COc1ccc(-c2cc(C(F)(F)F)c(C#N)c(SCC(=O)Nc3ccc(F)cc3)n2)cc1	1%	4%	0%	4%	20%	0%
55	Cc1nc2nc(SCC(=O)NC3CCCCC3)nn2c(C)c1Cc1ccccc1Cl	6%	12%	-17%	-2%	-1%	0%
56	O=c1cc(N2CCOCC2)oc2c(-c3ccccc3)cccc12	/	/	-19%[53.3 µM]	/	/	/
57	CCCCN(CC)CCNC(=O)c1cc2c(=O)oc3ccc(C)cc3c2s1	-11%	-2%	-22%	-1%	-5%	1%
58	CCOC(=O)c1cc(-c2ccc(F)cc2)n(CC(=O)NC2CCCCC2)c1C	10%	-14%	4%	4%	0%	-1%
59	CCC(Cn1nnc2ccccc2c1=O)NC(=O)Nc1cccc(C)c1C (stereo not drawn)	0%	-7%	-5%	8%	1%	-1%
60	O=C(CCSc1nc(-c2ccco2)cc(C(F)(F)F)n1)Nc1cccc(O)c1	2%	13%	?	1%	-2%	1%
61	CCN(Cc1ccccc1)C(=O)c1cc(-c2ccccc2)n[nH]1	-6%	-9%	17%	3%	-2%	0%
62	COc1cccc(C(=O)n2nc(-c3ccco3)nc2NCc2cccs2)c1	?	-4%	-4%	-3%	2%	1%

Of the compounds above, these contain a cyano group:
nr	structure	p53null 39C tox	p53null 32C tox	FH mod	GALK inh	PTAP-TSG101 blk	B2AR arrestin ag
25	CCOC(=O)C1=C(N)Oc2ccc(Cl)cc2C1C(C#N)C(=O)OCC (stereo not drawn)	/	/	7%	/	/	/
41	N#Cc1c(C(F)(F)F)cc(-c2cccs2)nc1SCC(=O)Nc1ccc(Cl)cc1	-19%	2%	-5%	-1%	45%[activator]	-2%
52	CCOc1ccc(/C=C/c2nc(C#N)c(N3CCCCC3)o2)cc1	-12%	13%	?	-5%	1%	-2%
54	COc1ccc(-c2cc(C(F)(F)F)c(C#N)c(SCC(=O)Nc3ccc(F)cc3)n2)cc1	1%	4%	0%	4%	20%	0%
